High-throughput results from PubChem.
HPGD inh: inhibitors of human 15-hydroxyprostaglandin dehydrogenase (HPGD); P15428; purified HPGD, NADH fluorescence kinetic, PGE2 substrate; Potency, µM, without a hit: top-dose activity change, negative = inhibition, hits mostly inhibitors; 4.3% of 150,000 active; active = well fitted inhibition curve with a large enough effect (not every such curve was filed as active); inconclusive = small, poorly fitted or top-dose-only effect, or another doubt; inactive = no such curve, though single readings can be large or run the other way;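 also: top concentration of the series not given in the record; plate controls included wells without enzyme; inactives centre near -10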
Target sequence (P15428 whole entry, looked up): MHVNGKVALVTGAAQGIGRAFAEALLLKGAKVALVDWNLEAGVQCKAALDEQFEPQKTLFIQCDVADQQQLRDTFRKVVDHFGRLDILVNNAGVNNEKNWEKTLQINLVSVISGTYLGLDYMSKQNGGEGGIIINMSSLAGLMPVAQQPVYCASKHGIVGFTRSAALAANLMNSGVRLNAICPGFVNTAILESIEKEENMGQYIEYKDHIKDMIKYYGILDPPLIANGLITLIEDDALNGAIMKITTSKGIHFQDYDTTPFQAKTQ
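NADH formation kinetics: reaction with 30 uM PGE2 and 1 mM NAD+ (final), 20 nM enzyme, Tris-HCl pH 8 with Tween 20, after 15 min compound preincubation at room temperature. Fluorescence change, last versus first of five reads.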
Numbers without * were called inactive; ? = inconclusive; & = joins results of further samples. % is scaled to controls: 0 for no effect and ±100 for the full control effect; potency is read from the fitted curve at half-maximal effect. An excerpt; rates above refer to the full screens.

SMILES	HPGD inh
Cc1onc(-c2ccccc2)c1C(=O)NC(=S)Nc1sc2c(c1C#N)CCC(C)C2 (stereo unspecified)	-29%
CC(Oc1ccc(Cl)cc1Cl)c1nc(-c2ccc(NC(=O)c3ccco3)cc2)no1 (stereo unspecified)	?
Cc1ccc(C)c(C(=O)C(C)OC(=O)c2cccn2C)c1 (stereo unspecified)	-5%
COc1cc(OC)cc(-c2cc(N)n(S(=O)(=O)Cc3ccccc3)n2)c1	-7%
CCCn1c(C(O)c2ccc3c(c2)OCO3)nc2ccccc21 (stereo unspecified)	-7%
O=C(/C=C/c1cccc(F)c1)N1CCc2ccccc21	-12%
CCN(CC)S(=O)(=O)c1cc(C(=O)O)c(Cl)cc1Cl	-5%
Fc1ccc(-c2cc(C(F)(F)F)nc(-n3cncn3)n2)cc1	-17%
COc1ccc(F)c(C2C(C#N)=C(N)Oc3n[nH]c(C(C)(C)C)c32)c1 (stereo unspecified)	-6%
O=C(COC(=O)CCC(=O)Nc1nccs1)NCc1ccco1	-10%
O=C(OCC(=O)N1CCCCCC1)c1cccs1	-18%
CN1C(=O)C(=C2CCCCCC2)SC1=S	-22%
Cc1[nH]c(=O)[nH]c(=O)c1/C=N/NC(=O)[C@H](CC(C)C)NC(=O)OC(C)(C)C	-10%
CC1(C)Oc2ccc3ccc(=O)oc3c2CC1O (stereo unspecified)	?
O=C(CSC1=NC(=O)C(c2ccccc2)C(=O)N1)Nc1ccccc1Cl (stereo unspecified)	-9%
CCn1c(CS(=O)Cc2ccc(Cl)cc2Cl)nnc1SCc1c(Cl)cccc1Cl (stereo unspecified)	-3%
CCOC(=O)C1CCCN(C(=O)c2cn(C)c3ccc(S(=O)(=O)N(C)C)cc3c2=O)C1 (stereo unspecified)	-12%
CN(CC(=O)N1CCc2ccccc21)S(=O)(=O)c1cccc2cccnc12	-2%
C=CCC1CCC(=O)N2CCCC12 (stereo unspecified)	-1%
CCOc1ccccc1NC(=O)COC(=O)C(CC(C)C)N1C(=O)C2CC=CCC2C1=O (stereo unspecified)	-10%
CC(C)Cc1csc(NC(=O)c2ccc(Cl)cc2)c1C(=O)O	18µM*
Cc1ccc(Cn2c([N+](=O)[O-])cnc2C)cc1	-7%
O=C(Nc1ccc(S(=O)(=O)N2CCc3ccccc32)cc1)c1ccco1	-19%
COc1ccc(N/C=C2/CCCCC2=O)cc1	25µM*
C#CCOCCOCCOCCNc1nc(N2CCOCC2)nc(N2CCN(C(=O)Cn3cc(CCCN=C(N)N)nn3)CC2)n1	2%
O=C(O)c1ccc(S(=O)(=O)N=Nc2c(O)[nH]c3ccccc23)cc1	?
CCC(CC)C(=O)NCCc1cc2ccc(OC)cc2[nH]c1=O	-19%
Cc1cc(NC(=O)CSc2nc3c(cc2C#N)CCCC3)no1	?
O=C(O)CCCCCNS(=O)(=O)c1cccc2nsnc12	-3%
COCc1nc2ccccc2n1Cc1cccc(C)c1	-3%
Cc1ccc(C(c2nnnn2C2CCCCC2)N(C)C2CCCCC2)cc1 (stereo unspecified)	-2%
O=C(CSc1nnc(-c2cccnc2)n1-c1ccccc1)Nc1ccc2c(c1)OCO2	-14%
CC(C)(C)NC(=O)Cn1nnc(-c2ccc(Cl)cc2)n1	-2%
O=C(CS(=O)(=O)Cc1ccccc1)NCC1CCCO1 (stereo unspecified)	-19%
CNC(=O)NC(=O)C(C)OC(=O)c1c2c(nc3ccccc13)/C(=C/c1cccs1)CC2 (stereo unspecified)	-24%
CCN(Cc1ccccc1)C(=S)Nc1cc(C(=O)OC)ccc1C(=O)OC	-4%
CCC(C)(C)n1nnnc1C(c1ccc(C)cc1)N1CCN(C(=O)c2ccco2)CC1 (stereo unspecified)	1%
O=[N+]([O-])c1cccc(C2=NCCC(c3ccccc3)O2)c1 (stereo unspecified)	-6%
CSc1nc(N2CCOCC2)c2c(c1C#N)CCCCC2	-14%
COc1ccc(NC(=O)CCCNS(=O)(=O)c2cccs2)cc1	-12%

HPGD inh, hit marks shown above
SMILES	HPGD inh
CC(C)Cc1csc(NC(=O)c2ccc(Cl)cc2)c1C(=O)O	18µM*
COc1ccc(N/C=C2/CCCCC2=O)cc1	25µM*

Later entries:
SMILES	HPGD inh
FC(F)(F)c1cccc(N2CCN(Cc3ccoc3)CC2)c1	-11%
COc1ccc(-c2ccc(SCC(=O)N3c4ccccc4CC3C)nn2)cc1OC (stereo unspecified)	-27%
CCc1c(C#N)c(SCCC(=O)Nc2ccc(OC)cc2)nc2c1C(=O)CC(C)(C)C2	-14%
Nc1ncnc2c1ncn2[C@@H]1O[C@@H](CO)[C@H](O)[C@H]1O	-4%
CCn1ncc(Br)c1C(=O)N(C)C12CC3CC(CC(C3)C1)C2	-5%
COC(=O)/C(=C1/Oc2cc(C)oc(=O)c2S1)C(F)(F)F	7.9µM*
COc1ccc(-c2noc(COc3ccc(Cl)c(C)c3)n2)cc1	-7%
CSCC(=O)NS(=O)(=O)c1ccc(C)cc1	-1%
COC(=O)c1c(NC(=O)CN2C(=O)NC3(CCC(C(C)(C)C)CC3)C2=O)sc2c1CCCCC2 (stereo unspecified)	-12%
CC1CCCC(C)N1C(=O)CSc1nnc(-c2c[nH]c3ccccc23)o1 (stereo unspecified)	-23%
O=c1nc2scc(-c3ccccc3)n2c2ccccc12	-12%
CCOc1ccc(N/C=C/C(=O)c2ccc3ccccc3c2)c([N+](=O)[O-])c1	-3%
COc1cccc(CN(C)CC(=O)NC(=O)NCc2ccco2)c1	-11%
CC(=O)NCCn1c(SCC(=O)NCc2ccco2)nc2ccccc2c1=O	2%
Cc1cccc(C2Nc3ccccc3C(=O)N2CCc2ccccc2)n1 (stereo unspecified)	?
O=C(Nc1ccc(O)c2c(=O)cc(-c3ccccc3Cl)oc12)c1ccc(Br)cc1	1.1µM*
CC(C)NC(=O)c1ccc(CNC(=O)OCC(F)(F)F)cc1	-4%
COc1ccc(OCC(=O)N2CCN(C(=O)COc3ccccc3)CC2)cc1	0%
CC1CCCCC1NC(=O)CN1C(=O)NC(Cc2ccccc2)(Cc2ccccc2)C1=O (stereo unspecified)	-3%
CCN(CC)C(=O)CSC1=Nc2ccccc2C2=NC(Cc3c[nH]c4ccccc34)C(=O)N12 (stereo unspecified)	-4%
Cc1ccc(C(C)C)cc1S(=O)(=O)NCc1cccnc1	-5%
CCCOC(=O)NC1CCS(=O)(=O)C1 (stereo unspecified)	8%
CCn1c2ccccc2c2nn(C)c(=N)nc21	-6%
O=C(OCCN1C(=O)c2cccc3c(N4CCOCC4)ccc(c23)C1=O)c1ccc(Cl)cc1Cl	-15%
CC(=O)c1cc2c(cc1NC(=O)CN1CCCCC1C)OCO2 (stereo unspecified)	?
Cc1c(NC(=O)c2ccc3ncccc3c2)c(=O)n(-c2ccccc2)n1C	-8%
C[N+](C)(C)CC(=O)N/N=C\c1c(O)ccc2ccccc12	-6%
Cc1ccc(Nc2ccc([N+](=O)[O-])nc2[N+](=O)[O-])cc1	-15%
Cc1cc(C)cc(NC(=O)CSc2ncc(S(=O)(=O)c3ccccc3)c(=O)[nH]2)c1	-27%
Cc1cc(-c2n[nH]c(=S)n2-c2ccccc2)nn1C	-19%
Cc1ccc2nc(SC(C(=O)c3ccccc3)c3ccccc3)nc(C)c2c1 (stereo unspecified)	-11%
COc1ccc(Cn2c(-c3ccc(OC)cc3)nc3c(c(=O)c4ccccc4n3C)c2=O)cc1	-3%
Nc1ccc(C(=O)c2cccs2)cc1	22µM*
Cn1ccnc1C[C@@](C)(O)c1ccccc1	-2%
CCCCN1C(=O)C(O)=C(C(C)=O)C1c1ccccc1 (stereo unspecified)	-12%
CN1C(=O)CSc2ccc(NC(=O)N3CCOCC3)cc21	-8%
COc1ccc(C2=CC3=C(Br)C(=O)C(C)(OC(=O)CCc4ccccc4)C(=O)C3=CO2)cc1 (stereo unspecified)	-8%
Cc1cccc(OCCCC(=O)N2CCCc3ccccc32)c1C	-9%
CCCC(=O)N1N=C(c2ccccc2)CC1c1cn(C)c2ccccc12 (stereo unspecified)	-9%
CCOC(=O)C1CCN(C(=O)c2cccc(Cl)c2)CC1	3%
CCC(C)C1NC(=S)N(Cc2ccccc2)C1=O (stereo unspecified)	-5%
Cc1ccc(NC2=NCCC2)cc1Cl	-9%
Cc1ccc(-n2c(C)cc(/C=N/NC(=O)Cn3c4ccccc4c(=O)c4ccccc43)c2C)cc1	?
CCOC(=O)C1(C(=O)OCC)CC1c1ccccc1 (stereo unspecified)	0%
O=C(O)Cc1ccc(NC(=O)C2CC=CCC2C(=O)O)cc1 (stereo unspecified)	-13%
O=C(CSC1=NCCS1)NC(c1ccccc1)c1ccccc1	-6%
COc1cccc(NC(=O)CCN2CCC(C(N)=O)CC2)c1	-5%
COc1cc(/C=c2\s/c(=C(/C#N)C(=O)N3CCCC3)n(-c3ccccc3)c2=O)ccc1O	-13%
CCOc1ccc(NC(=O)c2cc3c(C)nc4ccccc4c3o2)cc1	-26%
CCc1nc2c3cnn(-c4cc(Cl)ccc4C)c3ncn2n1	-28%
Continued.
SMILES	HPGD inh
CCOC(=O)c1c(C)n(C)c2ccc(OCC(O)Cn3c(C)nc4ccccc43)cc12 (stereo unspecified)	-26%
Cc1ccccc1C(=O)NNC(=O)c1ccc(F)cc1	7%
Cc1ccc(OCCCn2ccnc2)cc1C	1%
Cc1ccc(S(=O)(=O)NCc2ccc(C(=O)NC3CC3)cc2)cc1	?
O=C(O)[C@@H](O)Cc1ccccn1	-6%
CC(C)[C@H](CO)Nc1nc(Nc2cc(N)cc(Cl)c2)c2ncn(C(C)C)c2n1	?
COc1cc([C@@H]2c3cc4c(cc3[C@H](O)[C@H]3COC(=O)[C@H]23)OCO4)cc(OC)c1OC	-5%&-3%&2%&-7%
Cc1ccc(S(=O)(=O)/C(C#N)=C/c2c(N3CCC(C(N)=O)CC3)nc3c(C)cccn3c2=O)cc1	3.5µM*
O=C(O)C1=CC(O)[C@@H](O)C(O)C1 (stereo partly specified)	-6%
N[C@]1(C(=O)O)CCc2cc(C(=O)O)ccc21	-6%
CCOC(=O)c1c(C)[nH]c(C(=O)OC)c1CCC(=O)OC	?
Cc1n[nH]c(C)c1S(=O)(=O)N1CCC(C(=O)O)CC1	-6%
FC(F)(F)c1ccccc1-c1nccc(NCc2ccccc2)n1	-6%
Cc1ccccc1NC(=O)N1C2CCCC1CC(NC(=O)C(C)(C)C)C2 (stereo unspecified)	-11%
CCN1C(=C2C(=O)c3ccccc3C2=O)C=Cc2ccccc21	-22%
CC(C)CCNC(=O)C(=O)NCCC1=CCCCC1	-9%
CCCCOc1ccc(C(=O)NCC(=O)OCC(=O)N2CCN(S(=O)(=O)c3ccc(C)cc3C)CC2)cc1	-1%
COc1cccc(-n2nc(C(=O)O)c3ccccc3c2=O)c1	-6%
COc1ccc(/C=C/C(=O)c2ccc(O)cc2)cc1CN1CCOCC1	-21%
Cc1ccc2nc(C)c(C(=O)N/N=C/c3ccc(N4CCOCC4)cc3)cc2c1	?
COc1ccccc1CNC(=O)CS(=O)Cc1nc(-c2ccccc2C)oc1C (stereo unspecified)	-20%
CC(C)(C)c1ccc(O)c(O)c1	10µM*
Cn1c(=O)n(CCc2ccccc2)c(=O)c2c1nc1n2CCCN1c1ccccc1	-20%
Cc1ccc(C)n1-c1cccc(C(=O)O)c1	-29%
O=C(NC(Cc1ccccc1)C(=O)N1CCCC1C(=O)O)c1ccccc1 (stereo unspecified)	-8%
C=CCc1cc(Cl)ccc1OCCCNC(C)CC (stereo unspecified)	3%
CC(C)C(C(=O)NCC1CCCO1)N(Cc1ccco1)C(=O)CNS(=O)(=O)c1ccccc1 (stereo unspecified)	-5%
CC1CN(C(=O)c2cccs2)CCN1C(=O)c1cccs1 (stereo unspecified)	-11%
Cc1ccnc(N/C=C(\C#N)c2nc(-c3cccc(Br)c3)cs2)c1	-20%
O=C(Nn1c(-c2ccccc2)nc2ccccc2c1=O)c1ccco1	-9%
CCOc1ccc(NC(=O)Cn2nnc(C(=O)NCCc3ccc(OC)c(OC)c3)c2N)cc1	-9%
CCOC(=O)c1ccc(CC(=O)c2oc3cc(O)ccc3c2C)o1	?

Among those listed so far, these have an aryl methoxy group:
SMILES	HPGD inh
COc1cc(OC)cc(-c2cc(N)n(S(=O)(=O)Cc3ccccc3)n2)c1	-7%
COc1ccc(F)c(C2C(C#N)=C(N)Oc3n[nH]c(C(C)(C)C)c32)c1 (stereo unspecified)	-6%
COc1ccc(N/C=C2/CCCCC2=O)cc1	25µM*
CCC(CC)C(=O)NCCc1cc2ccc(OC)cc2[nH]c1=O	-19%
COc1ccc(NC(=O)CCCNS(=O)(=O)c2cccs2)cc1	-12%
COc1ccc(-c2ccc(SCC(=O)N3c4ccccc4CC3C)nn2)cc1OC (stereo unspecified)	-27%
CCc1c(C#N)c(SCCC(=O)Nc2ccc(OC)cc2)nc2c1C(=O)CC(C)(C)C2	-14%
COc1ccc(-c2noc(COc3ccc(Cl)c(C)c3)n2)cc1	-7%
COc1cccc(CN(C)CC(=O)NC(=O)NCc2ccco2)c1	-11%
COc1ccc(OCC(=O)N2CCN(C(=O)COc3ccccc3)CC2)cc1	0%
COc1ccc(Cn2c(-c3ccc(OC)cc3)nc3c(c(=O)c4ccccc4n3C)c2=O)cc1	-3%
COc1ccc(C2=CC3=C(Br)C(=O)C(C)(OC(=O)CCc4ccccc4)C(=O)C3=CO2)cc1 (stereo unspecified)	-8%
COc1cccc(NC(=O)CCN2CCC(C(N)=O)CC2)c1	-5%
COc1cc(/C=c2\s/c(=C(/C#N)C(=O)N3CCCC3)n(-c3ccccc3)c2=O)ccc1O	-13%
COc1cc([C@@H]2c3cc4c(cc3[C@H](O)[C@H]3COC(=O)[C@H]23)OCO4)cc(OC)c1OC	-5%&-3%&2%&-7%
COc1cccc(-n2nc(C(=O)O)c3ccccc3c2=O)c1	-6%
COc1ccc(/C=C/C(=O)c2ccc(O)cc2)cc1CN1CCOCC1	-21%
COc1ccccc1CNC(=O)CS(=O)Cc1nc(-c2ccccc2C)oc1C (stereo unspecified)	-20%
CCOc1ccc(NC(=O)Cn2nnc(C(=O)NCCc3ccc(OC)c(OC)c3)c2N)cc1	-9%
